Sa RN4220 lethal = S. aureus RN4220 growth inhibition | OD600, 16 h | inhibition, % (no concentration beside the values) | 330,000 compounds, 0.33% hits | AID 1259311;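 active = z-score of -3 or lower and OD600 up to 0.18 on both plates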;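 note: plate controls were untreated cells for no effect and reference antibiotic for full effect; stock transfer was 100 nL into about 80 µL; one replicate is shown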
Bead autofluor = compound fluorescence in toxin protease inhibitor counterscreen; fluorescence intensity (no concentration beside the values); 360,000 compounds, 3.1% hits; compound autofluorescence counterscreen, microsphere flow cytometry; active compounds read high; AID 624483;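 active = at least 3 SD above the mean of all compounds, about 16000 in these data; inconclusive = too few beads counted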;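 note: 100 nL of 1 mM stock went into each well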
Mtb hypoxia inh = Mtb hypoxia fluorescent reporter inhibition; fluorescence inhibition, % (no concentration beside the values); 300,000 compounds, 0.1% hits; M. tuberculosis hypoxia-regulated fluorescent reporter, fluorescence;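 active = 35 to 45% if threefold the growth effect, above 45% if 1.5-fold the growth effect; inactive = the rest, general growth blockers included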;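 note: wells of about 50 µL received 100 nL stock; 0% = vehicle wells and 100% = reference inhibitor wells; whole bacteria with a GFP reporter of the hypoxia response; strong numbers were not always called active; many hits fall short of the cut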
PrP UTR inh = inhibition of PrP 5' UTR reporter expression; cell-based PrP 5' UTR mRNA reporter, plate reader; inhibition, % (concentration not given with the values); 340,000 compounds, 0.35% hits;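 active = every replicate at 50% or more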;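 note: 0 = median of the neutral control wells; tested in H4 reporter cells; numbers are from one replicate; inactives centre near -14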
Sa ugtP lethal = kills S. aureus RN4220 lacking UgtP; S. aureus RN4220 ugtP deletion, OD600 growth, 16 h; some inactives read as strong as hits; growth inhibition, % (test concentration not listed); 330,000 compounds, 0.54% hits;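 active = z-score under -3 and OD600 up to 0.15 on both plates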;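 note: plate controls were untreated wells for no effect and antibiotic for full effect; wells of about 80 µL received 100 nL stock; the first replicate is given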
BJeLR viability = kills HRASV12-expressing BJeLR cells | BJeLR (HRASV12) viability, CellTiter-Glo ATP luminescence, 48 h; reference of the scale not given here | inhibition, % (no concentration beside the values) | 300,000 compounds, 0.17% hits;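 active = replicate mean above 50%; inconclusive = above 50% but judged a plate artefact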;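 note: 50 nL library stock added to about 25 µL; numbers are from one replicate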
Mtb hypoxia inh growth = recorded beside Mtb hypoxia inh, whose call it bears; growth inhibition, %; measured here: M. tuberculosis growth (absorbance);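 0% = vehicle and 100% = reference antibiotic; read after six days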
* marks the source's active call; other numbers are inactive results.

COc1cc(C(O)P(=O)(OC(C)C)OC(C)C)cc(OC)c1OC (configuration not stated) was read as Sa RN4220 lethal 2.6, Bead autofluor 9566, Mtb hypoxia inh 15, PrP UTR inh 2, Sa ugtP lethal 8, BJeLR viability -11 and Mtb hypoxia inh growth 0.
CCCCn1c(N)c(N2CCOCC2)c(=O)n(CC(=O)NC(C)c2ccccc2)c1=O (configuration not stated) was read as Sa RN4220 lethal 4.9, Bead autofluor 4479, Mtb hypoxia inh 17, PrP UTR inh -29, Sa ugtP lethal 15, BJeLR viability -3 and Mtb hypoxia inh growth 13.
Screening O=C(NC(=S)Nc1ccccc1N1CCCC1)c1ccc(-c2cccc([N+](=O)[O-])c2)o1 returned Sa RN4220 lethal 5.0, Bead autofluor 19601*, Mtb hypoxia inh -5, PrP UTR inh -24, Sa ugtP lethal -27, BJeLR viability -1 and Mtb hypoxia inh growth -5.
`Cc1cc(C)n(Cc2ccc(NC(=O)c3nn(C)cc3[N+](=O)[O-])cc2)n1` gave Sa RN4220 lethal 2.2, Bead autofluor 22583*, Mtb hypoxia inh 6, PrP UTR inh -13, Sa ugtP lethal -6, BJeLR viability -7 and Mtb hypoxia inh growth 8.
CC1(C)OC(=O)C(=CNC(CCC(N)=O)C(=O)O)C(=O)O1 (configuration not stated) was read as Sa RN4220 lethal 1.0, Bead autofluor 3793, Mtb hypoxia inh 2, PrP UTR inh -23, Sa ugtP lethal -4, BJeLR viability -11 and Mtb hypoxia inh growth 0.
Screening Brc1ccc(Oc2nnnn2-c2ccccc2)cc1 returned Sa RN4220 lethal 12, Bead autofluor 4232, Mtb hypoxia inh 9, PrP UTR inh -7, Sa ugtP lethal 0, BJeLR viability -8 and Mtb hypoxia inh growth 9.
Screening CCOC(=O)Cc1csc(NC(=O)CSc2nnc(-n3nc(C)cc3C)c3ccccc23)n1 returned Sa RN4220 lethal 2.0, Bead autofluor 10692, Mtb hypoxia inh 4, PrP UTR inh 6, Sa ugtP lethal 3, BJeLR viability -1 and Mtb hypoxia inh growth 2.
CC(=O)c1cn(C)c(=O)c2ccccc12 was read as Sa RN4220 lethal 4.6, Mtb hypoxia inh 10, PrP UTR inh -21, Sa ugtP lethal 1, BJeLR viability -1 and Mtb hypoxia inh growth 4.
`CN1CCN(CC2(O)CCN(S(=O)(=O)c3ccc(Cl)cc3)CC2)CC1` gave Sa RN4220 lethal 5.3, Bead autofluor 3612, Mtb hypoxia inh -6, PrP UTR inh -19, Sa ugtP lethal 4, BJeLR viability 4 and Mtb hypoxia inh growth -4.
For O=C(N/C(=C/c1cccs1)C(=O)N1CCCC1)c1ccccc1 the results were Sa RN4220 lethal 0.8, Bead autofluor 3761, Mtb hypoxia inh 8, PrP UTR inh -6, Sa ugtP lethal 0, BJeLR viability -18 and Mtb hypoxia inh growth 3.
`O=C1C2CCCN2C(c2ccco2)N1c1ccc(F)cc1` (configuration not stated) gave Sa RN4220 lethal 2.6, Bead autofluor 4881, Mtb hypoxia inh -4, PrP UTR inh -9, Sa ugtP lethal 3, BJeLR viability 5 and Mtb hypoxia inh growth 2.
Screening CCc1nnc(NC(=O)CSc2nc3c(C)cccc3[nH]2)s1 returned Sa RN4220 lethal 2.9, Bead autofluor 2194, Mtb hypoxia inh 7, PrP UTR inh 8, Sa ugtP lethal -4, BJeLR viability -4 and Mtb hypoxia inh growth 15.
COc1ccc(C(=O)OCCNC(=O)c2ccncc2)cc1OC was read as Sa RN4220 lethal 2.6, Bead autofluor 8687, Mtb hypoxia inh 6, PrP UTR inh -14, Sa ugtP lethal -8, BJeLR viability 7 and Mtb hypoxia inh growth 2.
Cc1cccn2cc(CNc3ccccc3)nc12 was read as Sa RN4220 lethal -2.0, Bead autofluor 20732*, Mtb hypoxia inh 7, PrP UTR inh -32, Sa ugtP lethal -1, BJeLR viability 3 and Mtb hypoxia inh growth 4.
For COc1ccccc1-c1noc(-c2ccccc2C(=O)N2CCOCC2)n1 the results were Sa RN4220 lethal -1.6, Bead autofluor 2461, PrP UTR inh -12, Sa ugtP lethal 5 and BJeLR viability -11.
For NS(=O)(=O)c1ccc(CNC(=O)c2csc3c2CCCC3)cc1 the results were Sa RN4220 lethal -0.8, Bead autofluor 4944, Mtb hypoxia inh -5, PrP UTR inh -8, Sa ugtP lethal -1, BJeLR viability -1 and Mtb hypoxia inh growth 12.
`CCNc1nc(NC(C)C)nc(SCCOc2ccc(C)cc2)n1` gave Sa RN4220 lethal -9.3, Bead autofluor 2933, PrP UTR inh -1, Sa ugtP lethal -17 and BJeLR viability -2.
Screening O=C(Nc1ccc(-c2cn3c(n2)SCC3)cc1)c1ccc2c(c1)OCO2 returned Sa RN4220 lethal -3.9, Bead autofluor 4870, Mtb hypoxia inh -11, PrP UTR inh -5, Sa ugtP lethal 3, BJeLR viability 9 and Mtb hypoxia inh growth 7.
For Cc1cc2nnc(SC3CCOC3=O)n2c2ccccc12 (configuration not stated) the results were Sa RN4220 lethal 7.3, Bead autofluor 5929, Mtb hypoxia inh 5, PrP UTR inh -27, Sa ugtP lethal 3, BJeLR viability -9 and Mtb hypoxia inh growth 11.
For O=C(CN(C(=O)CCC(=O)Nc1nccs1)c1ccccc1F)NCc1ccc(F)cc1 the results were Sa RN4220 lethal 4.4, Bead autofluor 6548, Mtb hypoxia inh -18, PrP UTR inh -8, Sa ugtP lethal 7, BJeLR viability 0 and Mtb hypoxia inh growth 0.

Ordered by SMILES length (largest number first): part of the list above
Screening CCOC(=O)Cc1csc(NC(=O)CSc2nnc(-n3nc(C)cc3C)c3ccccc23)n1 returned Sa RN4220 lethal 2.0, Bead autofluor 10692, Mtb hypoxia inh 4, PrP UTR inh 6, Sa ugtP lethal 3, BJeLR viability -1 and Mtb hypoxia inh growth 2.
`CN1CCN(CC2(O)CCN(S(=O)(=O)c3ccc(Cl)cc3)CC2)CC1` gave Sa RN4220 lethal 5.3, Bead autofluor 3612, Mtb hypoxia inh -6, PrP UTR inh -19, Sa ugtP lethal 4, BJeLR viability 4 and Mtb hypoxia inh growth -4.
For COc1ccccc1-c1noc(-c2ccccc2C(=O)N2CCOCC2)n1 the results were Sa RN4220 lethal -1.6, Bead autofluor 2461, PrP UTR inh -12, Sa ugtP lethal 5 and BJeLR viability -11.

(continued)
COc1ccc(C(=O)Nn2c(SCC(=O)NC3CCCCC3)nc3ccccc3c2=O)cc1 was read as Sa RN4220 lethal 4.4, Bead autofluor 20612*, Mtb hypoxia inh 5, PrP UTR inh 37, Sa ugtP lethal -3, BJeLR viability 0 and Mtb hypoxia inh growth 7.
Screening Cn1ccc(-c2cc(C(=O)O)c3ccccc3n2)n1 returned Sa RN4220 lethal 3.1, Bead autofluor 4992, Mtb hypoxia inh -5, PrP UTR inh -20, Sa ugtP lethal 5, BJeLR viability 2 and Mtb hypoxia inh growth 0.
`N#Cc1c2ccc(OCC(N)=O)cc2n2ccccc12` gave Sa RN4220 lethal 11, Bead autofluor 4489, Mtb hypoxia inh 0, PrP UTR inh -22, Sa ugtP lethal 4, BJeLR viability 0 and Mtb hypoxia inh growth 2.
Screening CC(C)c1ccc(NC(=O)N2C[C@H]3C[C@@H](C2)c2cccc(=O)n2C3)cc1 returned Sa RN4220 lethal 5.3, Bead autofluor 4254, PrP UTR inh -5, Sa ugtP lethal 2 and BJeLR viability -5.
For Nc1nc(-c2cccnc2)nn1C(=O)c1ccco1 the results were Sa RN4220 lethal 0.1, Mtb hypoxia inh 0, Sa ugtP lethal 0, BJeLR viability 7 and Mtb hypoxia inh growth -4.
For CN(C)Cc1cc(O)c(CN(C)C)cc1O the results were Sa RN4220 lethal 2.6, Bead autofluor 5408, Mtb hypoxia inh 2, PrP UTR inh -30, Sa ugtP lethal 4, BJeLR viability 7 and Mtb hypoxia inh growth 3.
For COC(=O)c1ccc(N2C(=O)CC(N3CCN(C(=O)c4ccco4)CC3)C2=O)cc1 (configuration not stated) the results were Sa RN4220 lethal 2.2, Bead autofluor 15833, Mtb hypoxia inh 3, PrP UTR inh -9, Sa ugtP lethal 5, BJeLR viability 15 and Mtb hypoxia inh growth -2.
COc1cc(/C=N/NC(=O)c2cc(-c3ccccc3Cl)nc3ccccc23)cc(OC)c1O was read as Bead autofluor 4578, PrP UTR inh -19 and BJeLR viability -10.
Screening CN1C(=O)C(=O)/C(=C(/O)c2ccccc2)C1c1ccc([N+](=O)[O-])cc1 (configuration not stated) returned Sa RN4220 lethal 1.6, Bead autofluor 3889, Mtb hypoxia inh -15, PrP UTR inh -34, Sa ugtP lethal 4, BJeLR viability 1 and Mtb hypoxia inh growth -7.
Cc1ccc(C(=O)NC2(C(F)(F)F)NC(=O)N(c3ccc(Cl)cc3)C2=O)cc1 (configuration not stated) was read as Sa RN4220 lethal -3.2, Bead autofluor 2183, Mtb hypoxia inh 11, PrP UTR inh -10, Sa ugtP lethal -14, BJeLR viability 4 and Mtb hypoxia inh growth 2.
For Cc1ccc(-n2c([S-])c(C(=O)NC(C)c3ccccc3)[n+]3ccccc23)cc1 (configuration not stated) the results were Sa RN4220 lethal 3.0, Bead autofluor 2821, Mtb hypoxia inh -4, PrP UTR inh -13, Sa ugtP lethal 3, BJeLR viability 0 and Mtb hypoxia inh growth -1.
Screening COC(=O)c1ccc2nc(NC(=O)CSCC(=O)OCC(=O)c3ccccc3)sc2c1 returned Sa RN4220 lethal 1.3, Bead autofluor 10621, Mtb hypoxia inh 6, PrP UTR inh -10, Sa ugtP lethal -1, BJeLR viability -6 and Mtb hypoxia inh growth -4.
CC(C)(C)c1csc(NC(=O)C2COc3ccccc3O2)n1 (configuration not stated) was read as Sa RN4220 lethal -3.1, Bead autofluor 5928, Mtb hypoxia inh 10, PrP UTR inh -42, Sa ugtP lethal 7, BJeLR viability 16 and Mtb hypoxia inh growth 5.
Screening COC(c1ccccc1)c1c(-c2ccccc2)nn(C)c1Cl (configuration not stated) returned Sa RN4220 lethal 2.1, Bead autofluor 4169, Mtb hypoxia inh 9, PrP UTR inh -28, Sa ugtP lethal 13, BJeLR viability -7 and Mtb hypoxia inh growth 4.
Screening CN(C)C(=O)c1ccc(N=Nc2c(O)c3ccccc3[nH]c2=O)cc1 returned Sa RN4220 lethal 0.4, Bead autofluor 2985, Mtb hypoxia inh 23, PrP UTR inh -47, Sa ugtP lethal 16 and Mtb hypoxia inh growth 16.
For CCCCn1c(N(CCOC(C)=O)C(C)=O)nc2ccccc21 the results were Sa RN4220 lethal -1.1, Bead autofluor 19843*, Mtb hypoxia inh 1, PrP UTR inh -45, Sa ugtP lethal 0, BJeLR viability 0 and Mtb hypoxia inh growth -4.
For Cc1cc(N2CCC(C)CC2)c(F)cc1[N+](=O)[O-] the results were Sa RN4220 lethal 22, Bead autofluor 24078*, Mtb hypoxia inh 1, PrP UTR inh -2, Sa ugtP lethal -1, BJeLR viability 1 and Mtb hypoxia inh growth 5.
CC1CCC(CN2CCN=C2Nc2ccccc2)CC1 (configuration not stated) was read as Sa RN4220 lethal 4.0, Bead autofluor 3779, Mtb hypoxia inh 6, PrP UTR inh -1, Sa ugtP lethal -7, BJeLR viability 0 and Mtb hypoxia inh growth 6.
COc1ccccc1N1CCN(C(=O)CCNS(=O)(=O)c2cc(Br)cnc2N)CC1 was read as Sa RN4220 lethal 1.4, Bead autofluor 2425, Mtb hypoxia inh 5, PrP UTR inh 2, Sa ugtP lethal 15, BJeLR viability -4 and Mtb hypoxia inh growth -3.
NC(=O)C1CCN(C(=O)CC2C(=O)NCCN2Cc2cccc(Oc3ccccc3)c2)CC1 (configuration not stated) was read as Sa RN4220 lethal 3.6, Bead autofluor inconclusive, Mtb hypoxia inh 9, PrP UTR inh -3, Sa ugtP lethal -1, BJeLR viability -11 and Mtb hypoxia inh growth 7.
Screening Cc1ccc(C)c(OCC(=O)Nc2ccncc2)c1 returned Sa RN4220 lethal -0.6, Bead autofluor 3519, Mtb hypoxia inh -1, PrP UTR inh -12, Sa ugtP lethal -2, BJeLR viability -13 and Mtb hypoxia inh growth -4.
COc1ccc(N2CCN(c3nc4ccc(C)cn4c(=O)c3C=O)CC2)cc1 was read as Sa RN4220 lethal 0.3, Bead autofluor 2021, Mtb hypoxia inh 1, PrP UTR inh -41, Sa ugtP lethal 1, BJeLR viability 2 and Mtb hypoxia inh growth -5.
Screening COc1ccc(C(CC(=O)O)NS(=O)(=O)c2ccc3c(c2)NC(=O)CO3)cc1 (configuration not stated) returned Sa RN4220 lethal 0.8, Bead autofluor 3680, Mtb hypoxia inh 1, PrP UTR inh -4, Sa ugtP lethal 5, BJeLR viability -4 and Mtb hypoxia inh growth 1.
